Bioassay records: PubChem, National Center for Advancing Translational Sciences (NCATS)
StopGo reporter: lowers the luciferase signal of an FMDV 2A StopGo reporter; 410,000 tested, 1.2% active; human cells with a luciferase reporter of 2A StopGo recoding; control for the full effect not named in the record; AID 1159524; Potency, µM (titrated, usually from 57.9 µM), for the others: top-dose signal change, negative = less light; active = well fitted falling curve with a large enough effect; inconclusive = small, poorly fitted or top-dose-only effect; inactive = no such curve, though single readings can be large or run the other way; tested in HEK293T cells; note: % is set by controls: 0 for no effect and ±100 for the full control effect; nearly all actives have a fitted effect of over 45% in size; luciferase light after 4 h
Cruzain inh noDet: cruzain (T. cruzi) inhibition without detergent; P25779; purified cruzain, Z-FR-AMC fluorescence, no detergent; Potency, µM, without a hit: max response, negative = inhibition, usual class: inhibitors; 200,000 tested, 2.3% active;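 note: plate controls were enzyme without inhibitor for no effect and buffer without enzyme for full effect; nearly all actives have a fitted effect of over 40% in size; top concentration of the series not given in the record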
Target sequence (P25779 123-467 limits assumed): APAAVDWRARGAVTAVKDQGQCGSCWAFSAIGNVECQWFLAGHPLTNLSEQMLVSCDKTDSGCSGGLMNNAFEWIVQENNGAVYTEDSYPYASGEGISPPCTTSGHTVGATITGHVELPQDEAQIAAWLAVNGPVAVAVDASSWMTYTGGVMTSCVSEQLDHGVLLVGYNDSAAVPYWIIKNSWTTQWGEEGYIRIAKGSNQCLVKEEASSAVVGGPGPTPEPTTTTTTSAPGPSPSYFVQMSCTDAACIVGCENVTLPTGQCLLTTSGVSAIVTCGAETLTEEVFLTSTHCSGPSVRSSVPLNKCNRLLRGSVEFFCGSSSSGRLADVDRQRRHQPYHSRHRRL
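Purified cruzain at 1.5 nM, pre-incubated 15 min with compound at room temperature in 100 mM sodium acetate pH 5.5, 5 mM DTT, 0.00005% Triton X-100. Reaction started with 2 uM Z-FR-AMC; AMC fluorescence increase over 60 s gives rate.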
SARS PLP yeast: inhibitors of SARS-CoV papain-like protease in yeast. S. cerevisiae expressing SARS-CoV PLpro, growth rescue; control for the full effect not named in the record. Potency, µM (titrated, usually from 32.9 µM), inactives show at the highest dose activity, positive = growth rescue. 330,000 tested, 0.19% active; active means well fitted rising curve with a large enough effect; inconclusive means small, poorly fitted or top-dose-only effect; inactive means no such curve, though single readings can be large or run the other way; note: 0% is about no effect; nearly all actives have a fitted effect of over 55% in size; growth read by luminescence after 48 h
NS1 inh: influenza NS1 inhibition. S. cerevisiae slowed by influenza A NS1, growth recovery by OD600. Potency, µM (series often up to 46.1 µM), inactives show at the top dose activity, positive = more growth. 270,000 tested, 0.4% active; active means well fitted rising curve with a large enough effect; inconclusive means small, poorly fitted or top-dose-only effect; inactive means no such curve, though single readings can be large or run the other way; note: nearly all actives have a fitted effect of over 50% in size
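OD600 was taken as the measure of yeast growth restored by compound in an NS1-expressing S. cerevisiae strain. Cells had been washed out of glucose medium and diluted 1:100 into galactose -URA medium, pH 6.0.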
MARV entry inh: blocks Marburg virus binding to or entry into cells | Marburg virus pseudotyped entry inhibition, cell reporter; control for the full effect not named in the record; about a third of the inactives were read at about 46 µM | Potency, µM (series often up to 37.8 µM), inactives show at the highest dose activity change, negative = inhibition, hits mostly inhibitors | 300,000 tested, 1.8% active | AID 540276; active = well fitted inhibition curve with a large enough effect; inconclusive = small, poorly fitted or top-dose-only effect, or effect the other way; inactive = flat fitted curve, though single readings scatter; tested in HEK293 cells; about a fifth of its hits are not listed in these tables; note: % is set by controls: 0 for no effect and ±100 for the full control effect; luciferase read-out
LASV entry inh: blocks Lassa virus binding to or entry into cells. AID 540256. Lassa virus pseudotype entry inhibition, cell reporter; control for the full effect not named in the record. Potency, µM (top dose mostly 37.9 µM), for the others: at the top dose activity change, negative = inhibition, most hits filed as inhibitors. 300,000 tested, 1.2% active; active means well fitted inhibition curve with a large enough effect; inconclusive means small, poorly fitted or top-dose-only effect, or effect the other way; inactive means flat fitted curve, though single readings scatter; tested in HEK293 cells; note: % is set by controls: 0 for no effect and ±100 for the full control effect; nearly all actives have a fitted effect of over 50% in size; luciferase read-out
Cruzain inh Det: blocks cruzain activity in presence of Triton detergent | purified cruzain, Z-FR-AMC fluorescence, 0.01% Triton | Potency, µM, for the others: max response, negative = inhibition, actives largely listed as inhibitors | 200,000 tested, 0.43% active;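 note: plate controls were neutral wells for no effect and buffer without enzyme for full effect; nearly all actives have a fitted effect of over 40% in size; top concentration of the series not given in the record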
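Z-FR-AMC hydrolysis (2 uM substrate) by cruzain (1.5 nM) monitored kinetically at ex 360/em 450 nm after 15 min room-temperature compound exposure; 0.01% Triton X-100, pH 5.5, 5 mM DTT.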
RE007 growth inh: less growth of the S. pombe RE007 Vpr strain | S. pombe RE007 Vpr strain, BacTiter-Glo ATP luminescence, 24 h; control for the full effect not named in the record | Potency, µM (titrated, usually from 92.2 µM), for inactives: at the top dose activity change, negative = less growth | 360,000 tested, 0.21% active; active = well fitted falling curve with a large enough effect; inconclusive = small, poorly fitted or top-dose-only effect; inactive = no such curve, though single readings can be large or run the other way;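 note: % is set by controls: 0 for no effect and ±100 for the full control effect; nearly all actives have a fitted effect of over 50% in size; the assay follows cell death caused by Vpr and the record does not say whether a fall means rescue or toxicity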
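Fission yeast RE007 carrying one integrated HIV-1 vpr copy, seeded at OD 0.01 in PMG+AL medium with 23 nL pinned compound. Grown 24 h at 30 degrees; viability read by BacTiter-Glo luminescence after 5 min.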
Starred values were filed as active, the others as inactive; [ ] = remark or other dose. Unless noted, calls come from the whole dose curve; as a rule, active = well fitted curve in the direction sought with a large enough effect; inconclusive = small, poorly fitted or top-dose-only effect, or another doubt; inactive = no such curve, though single readings can be large; an effect the other way counts as inactive or inconclusive. Potency is the fitted concentration of half-maximal effect.

How did COc1ccc(CCNC(=O)CN2CCC(C(N)=O)CC2)cc1 do in these assays?
StopGo reporter: -15%; Cruzain inh noDet: 8%; SARS PLP yeast: 5%; NS1 inh: -2%; MARV entry inh: inconclusive; LASV entry inh: inconclusive; Cruzain inh Det: 4.2%; RE007 growth inh: -3%

Results for Cc1ccc(-c2ccc(CCC(=O)O)n2NC(=O)c2ccco2)cc1 ?
StopGo reporter: -16%; Cruzain inh noDet: 3%; SARS PLP yeast: 4%; NS1 inh: -4%; MARV entry inh: 17%; LASV entry inh: 2%; Cruzain inh Det: 3.3%; RE007 growth inh: -10%

How did Cc1cc(C(=O)Cn2cncn2)c(C)n1CCc1ccc(F)cc1 do in these assays?
StopGo reporter: inconclusive; Cruzain inh noDet: -25%; SARS PLP yeast: -2%; NS1 inh: inconclusive; MARV entry inh: inconclusive; LASV entry inh: -15%; Cruzain inh Det: -0.5%; RE007 growth inh: -9%

Results for COc1ccc(CCNC(=O)CCCn2c(SCC(N)=O)nc3cc4c(cc3c2=O)OCO4)cc1OC ?
StopGo reporter: 2%; Cruzain inh noDet: -6%; SARS PLP yeast: 0%; LASV entry inh: 2%[46.1 µM]; Cruzain inh Det: 2.6%

What do the screens show for `Cc1c(Cl)c([N+](=O)[O-])nn1CCCC(=O)Nc1cccc(O)c1`?
StopGo reporter: -3%; SARS PLP yeast: 1%; MARV entry inh: -20%[46.1 µM]; LASV entry inh: 7%[46.1 µM]; RE007 growth inh: -1%

What do the screens show for `Cc1ccccc1N1CC(C(=O)O)CC1=O` (stereo not given)?
StopGo reporter: 24%; SARS PLP yeast: 0%; NS1 inh: 4%; MARV entry inh: 1%; LASV entry inh: -17%; RE007 growth inh: -7%

What do the screens show for `O=C(N/N=C/c1ccc(N2CCOCC2)o1)c1cccc(F)c1`?
StopGo reporter: 0%; Cruzain inh noDet: 7%; SARS PLP yeast: 7%; NS1 inh: 5%; MARV entry inh: -16%; LASV entry inh: 1%; Cruzain inh Det: -7.5%; RE007 growth inh: 16%

Results for O=C1C2C3C=CC(C3)C2C(=O)N1c1cccc2ccccc12 (stereo not given) ?
StopGo reporter: -2%; SARS PLP yeast: 1%; NS1 inh: -1%; MARV entry inh: 7%[46.1 µM]; LASV entry inh: 5%[46.1 µM]; RE007 growth inh: 0%

Results for O=C(NC1CC1)C1CCN(C2CCN(C(=O)CSc3ccccc3)CC2)CC1 ?
StopGo reporter: -5%; SARS PLP yeast: 4%; NS1 inh: 3%; RE007 growth inh: 4%

Results for Cc1ccc(NC(=O)CSc2nnc(-c3ccco3)o2)cc1 ?
StopGo reporter: 11%; SARS PLP yeast: 0%; MARV entry inh: -3%[46.1 µM]; LASV entry inh: 3%; RE007 growth inh: -4%

Results for CCOP(=O)(OCC)C(Nc1ccc(F)cc1)c1ccccc1 (stereo not given) ?
StopGo reporter: 6%; SARS PLP yeast: 3%; NS1 inh: 1%; MARV entry inh: inconclusive; LASV entry inh: 3%[46.1 µM]; RE007 growth inh: inconclusive

Results for CCc1ccc(Oc2nc3c(C)cccn3c(=O)c2/C=C(\C#N)c2nc3ccccc3s2)cc1 ?
StopGo reporter: -19%; Cruzain inh noDet: -11%; MARV entry inh: 0%[46.1 µM]; LASV entry inh: 2%[46.1 µM]; Cruzain inh Det: -3.4%

How did ClCCn1cnc2c(SCc3ccccc3Cl)ncnc21 do in these assays?
StopGo reporter: 10%; RE007 growth inh: 11%

Results for C=CCNC(=O)/C(C#N)=C/c1c(N2CC(C)OC(C)C2)nc2ccccn2c1=O (stereo not given) ?
StopGo reporter: 0%; Cruzain inh noDet: 12%; SARS PLP yeast: -18%; NS1 inh: 11%; MARV entry inh: -17%; LASV entry inh: inconclusive; Cruzain inh Det: -6.6%; RE007 growth inh: -4%

How did CCc1noc(N)c1C(=O)Nc1ccc(Cl)cc1 do in these assays?
StopGo reporter: -19%; SARS PLP yeast: -11%; NS1 inh: -18%; RE007 growth inh: -4%

How did COc1ccccc1-c1ccc(Nc2ccc(C(=O)N3CCOCC3)cc2)nn1 do in these assays?
StopGo reporter: -5%; Cruzain inh noDet: 16%; SARS PLP yeast: -2%; NS1 inh: -3%; MARV entry inh: -2%; LASV entry inh: 6%; Cruzain inh Det: -5.8%; RE007 growth inh: -2%

Results for Cc1cccc(N2CCN(S(=O)(=O)c3ccc(-c4ccc(=O)[nH]n4)o3)CC2)c1C ?
StopGo reporter: -4%; SARS PLP yeast: 0%; NS1 inh: 5%; RE007 growth inh: -14%

Results for CCOC(=O)CSc1nc2c(sc(=S)n2-c2ccc(OCC)cc2)c(=O)[nH]1 ?
StopGo reporter: -20%; SARS PLP yeast: 0%; MARV entry inh: -16%[46.1 µM]; LASV entry inh: 1%[46.1 µM]; RE007 growth inh: -8%

What do the screens show for `COc1ccc2[nH]c(C)c(CCNC(=S)Nc3cccc(C)c3C)c2c1`?
StopGo reporter: -1%; Cruzain inh noDet: -5%; SARS PLP yeast: 2%; NS1 inh: 17%; MARV entry inh: -17%; LASV entry inh: -12%; Cruzain inh Det: -2.4%; RE007 growth inh: 0%

Results for CC(C)c1ccc2c(c1)C(N1CCN(C)CC1)Cc1cccnc1S2 (stereo not given) ?
StopGo reporter: -21%; MARV entry inh: 11µM*; LASV entry inh: -10%[46.1 µM]; RE007 growth inh: -1%

How did COc1ccc(N2CCN(c3ccc(Cl)nn3)CC2)cc1 do in these assays?
StopGo reporter: 19%; SARS PLP yeast: -3%; NS1 inh: 6%; RE007 growth inh: 1%

Results for COc1ccc(-c2nn(-c3ccc(F)cc3)c3c2cnc2ccc(F)cc23)cc1OC ?
StopGo reporter: -10%; Cruzain inh noDet: 5%; MARV entry inh: 1%[46.1 µM]; LASV entry inh: 2%[46.1 µM]; Cruzain inh Det: -1.5%

Results for CCCCCCCC1=CC2=CC(=O)C(C)(OC(C)=O)C(=O)C2=CN1CCc1ccccc1 (stereo not given) ?
Cruzain inh noDet: inconclusive; SARS PLP yeast: 6%; NS1 inh: 13%; MARV entry inh: 1%; LASV entry inh: 0%; Cruzain inh Det: -6.2%

Results for C#CCn1c(=NC(=O)c2ccc3c(c2)OCCO3)sc2cc(OC)c(OC)cc21 ?
StopGo reporter: 0%; Cruzain inh noDet: 10%; LASV entry inh: 24%[46.1 µM]; Cruzain inh Det: 2.7%

How did O=C(c1ccncc1)N1CCN(c2ccc3ccccc3n2)CC1 do in these assays?
StopGo reporter: inconclusive; SARS PLP yeast: -1%; NS1 inh: 2%; MARV entry inh: -21%[46.1 µM]; LASV entry inh: inconclusive; RE007 growth inh: -16%

Results for Cc1cccc(C)c1NC(=O)C(=O)NCC(c1ccc2c(c1)OCO2)N1CCN(C)CC1 (stereo not given) ?
StopGo reporter: -12%; Cruzain inh noDet: -1%; LASV entry inh: 20%[46.1 µM]; Cruzain inh Det: -0.6%

What do the screens show for `CCOC(=O)c1c(C)nc2sc(C(N)=O)c(N)c2c1-c1ccc(OC)cc1`?
StopGo reporter: -23%; Cruzain inh noDet: -5%; SARS PLP yeast: 4%; NS1 inh: -3%; MARV entry inh: inconclusive; LASV entry inh: -3%; Cruzain inh Det: -3.9%; RE007 growth inh: 0%

Results for COc1ccc(S(=O)(=O)NCC(c2ccco2)S(=O)(=O)c2cccs2)cc1OC (stereo not given) ?
StopGo reporter: 57%[activator]; Cruzain inh noDet: 8%; LASV entry inh: 6%[46.1 µM]; Cruzain inh Det: -0.9%

Results for O=C1Nc2cc(Cl)c(Cl)cc2N(O)N1c1ccccc1 ?
Cruzain inh noDet: -13%; SARS PLP yeast: 9%; NS1 inh: 18%; MARV entry inh: 3%; LASV entry inh: 18%; Cruzain inh Det: -2.0%; RE007 growth inh: 4%

How did CCCCNC(=O)C1CCN(S(=O)(=O)CCC)CC1 do in these assays?
StopGo reporter: 1%; Cruzain inh noDet: -2%; LASV entry inh: 2%[46.1 µM]; Cruzain inh Det: 0.8%

Results for CCn1cc([N+](=O)[O-])c(C(=O)N2N=C(c3ccc(OC)cc3OC)CC2c2ccccc2O)n1 (stereo not given) ?
StopGo reporter: -7%; Cruzain inh noDet: inconclusive; SARS PLP yeast: inconclusive; NS1 inh: 11%; MARV entry inh: -12%; LASV entry inh: inconclusive; Cruzain inh Det: -7.5%; RE007 growth inh: 3%

How did S=c1[nH]nc(-c2cc(-c3ccccc3)n[nH]2)n1/N=C/C=C/c1ccccc1 do in these assays?
StopGo reporter: -6%; SARS PLP yeast: 1%; NS1 inh: 6%; RE007 growth inh: 2%

What do the screens show for `CCCCCCCCS(=O)CCC(=O)O` (stereo not given)?
StopGo reporter: -7%; SARS PLP yeast: 0%; MARV entry inh: -1%[46.1 µM]; LASV entry inh: -14%[46.1 µM]; RE007 growth inh: -4%

What do the screens show for `COc1ccccc1C1CC(c2ccccc2)=NN1C(=S)Nc1ccccc1` (stereo not given)?
StopGo reporter: 6%; SARS PLP yeast: -1%; MARV entry inh: -27%[46.1 µM]; LASV entry inh: -18%; RE007 growth inh: 26%

What do the screens show for `N#C/C(=C\c1ccc(O)cc1)C(=O)N1CCCC1`?
StopGo reporter: 13%; SARS PLP yeast: 0%; NS1 inh: 4%; RE007 growth inh: -5%

How did Cc1ccc2cc(C#N)c(N3CCCN(S(=O)(=O)c4ccccc4)CC3)nc2c1 do in these assays?
StopGo reporter: -6%; Cruzain inh noDet: -16%; SARS PLP yeast: -8%; NS1 inh: -2%; MARV entry inh: -11%; LASV entry inh: -15%; Cruzain inh Det: -2.8%; RE007 growth inh: 11%

How did O=c1c2ccc([N+](=O)[O-])cc2ncn1CCOc1ccccc1 do in these assays?
StopGo reporter: 3%; SARS PLP yeast: -1%; NS1 inh: 3%; MARV entry inh: -10%[46.1 µM]; LASV entry inh: -10%; RE007 growth inh: -9%

What do the screens show for `Cc1nn(C)c(C)c1CN(Cc1nc(CCC(C)C)no1)C(C)C`?
StopGo reporter: inconclusive; SARS PLP yeast: 3%; NS1 inh: -3%; MARV entry inh: inconclusive; LASV entry inh: inconclusive; RE007 growth inh: 0%
